Source: PubChem
TRPML1 blocker: human mucolipin-1 channel inhibition; TRPML1-inducible cells, Ca2+ dye fluorescence, FDSS; active compounds read low; inhibition of EC80 agonist-evoked calcium signal; activity change, negative = inhibition, % (no concentration beside the values); 0.02% of 390,000 active; in the data active means activity change below about -50%; inconclusive means about -30% to -50%; inactive means above about -30%;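 further: stimulus is agonist 54-4 at its EC80 concentration; on the % scale 0 is the no-effect control and ±100 the full control effect; compound concentration not given in the record; the text of the record puts the active cut at -80%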
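TRPML1-DL cells, Tet-induced overnight (~16 h, 37 °C) at 1,500 cells/well, were loaded with Ca8 no-wash dye plus quencher for 45-90 min at room temperature. Compounds were pinned during FDSS kinetic reading; agonist 54-4 at EC80 (4 uM final) then added.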
TRPV1 PAM: enhances activation of the human vanilloid receptor TRPV1 | Q8NER1 | TRPV1-expressing cells, Fluo-8 calcium influx, capsaicin EC20 potentiation; host cell line not named in the record; control for the full effect not named in the record | potentiation, % at 8.33 µM | 0.02% of 320,000 active | AID 540277; active means potentiation above 80%; inconclusive means 30% to 80%; inactive means below 30%; further: 0% is about no effect
Target sequence (Q8NER1 whole entry, looked up): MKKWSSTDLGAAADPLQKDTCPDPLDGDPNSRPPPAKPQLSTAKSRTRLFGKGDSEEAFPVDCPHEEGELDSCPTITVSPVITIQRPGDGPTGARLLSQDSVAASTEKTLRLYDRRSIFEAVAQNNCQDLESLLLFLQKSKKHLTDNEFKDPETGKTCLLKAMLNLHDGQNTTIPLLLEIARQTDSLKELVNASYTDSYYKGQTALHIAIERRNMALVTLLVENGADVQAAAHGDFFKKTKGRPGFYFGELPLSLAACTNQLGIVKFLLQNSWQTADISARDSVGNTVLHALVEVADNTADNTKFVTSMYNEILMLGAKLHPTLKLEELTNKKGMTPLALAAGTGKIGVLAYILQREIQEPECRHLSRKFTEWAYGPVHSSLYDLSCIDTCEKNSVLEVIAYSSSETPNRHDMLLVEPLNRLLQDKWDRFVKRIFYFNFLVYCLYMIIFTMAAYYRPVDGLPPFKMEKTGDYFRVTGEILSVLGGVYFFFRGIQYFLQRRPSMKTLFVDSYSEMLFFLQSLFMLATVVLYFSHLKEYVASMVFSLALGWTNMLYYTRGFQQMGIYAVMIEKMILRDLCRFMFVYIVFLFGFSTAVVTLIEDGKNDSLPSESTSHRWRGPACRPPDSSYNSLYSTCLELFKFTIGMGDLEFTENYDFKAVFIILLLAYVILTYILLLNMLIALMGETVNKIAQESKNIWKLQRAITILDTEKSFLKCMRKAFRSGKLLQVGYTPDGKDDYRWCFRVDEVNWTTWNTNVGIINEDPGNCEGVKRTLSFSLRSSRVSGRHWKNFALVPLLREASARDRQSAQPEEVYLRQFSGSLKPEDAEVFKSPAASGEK
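Cells expressing TRPV1 were dye-loaded with Fluo-8 and read kinetically: 10 s baseline, 3 min after compound (agonist portion), then 2 min after EC20 capsaicin (allosteric enhancer portion). Calcium-bound dye fluorescence at 480/520 nm.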
Six1-Eya2 inh: inhibitors of human Six1/Eya2 interaction; AlphaScreen GST-Six1/His-Eya2 binding, biochemical; active compounds read low; control for the full effect not named in the record; AID 651725; 0.56% of 360,000 active; Q15475+O00167; activity change, % (concentration not given with the values); in the data active = activity change below about -65%; inconclusive = about -30% to -65%; inactive = above about -30%; further: on the % scale 0 is the no-effect control and ±100 the full control effect
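Compounds are tested against tagged Six1 and Eya2 proteins bridged by glutathione donor and nickel acceptor beads; after a one-hour incubation at 37 °C without light, AlphaScreen emission is recorded.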
TRPML1 ag: activates the human TRPML1 channel; Q9GZU1; TRPML1-expressing cells, Ca2+ dye fluorescence, FDSS; host cell line not named in the record; reference of the full effect not given here; activation, % (concentration not given with the values); 0.12% of 410,000 active; AID 624414; in the data active = activation above about 50%; inconclusive = about 30% to 50%; inactive = below about 30%; further: 0% is about no effect; the text of the record puts the active cut at 80%
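Kinetic FDSS Ca2+ read in Tet-induced TRPML1-DL cells (ABD Ca8 dye plus quencher, 45-90 min RT loading): baseline, then compound, then 110 s agonist window; EC80 agonist 54-4 at 4uM final added afterwards for a 110 s antagonist window.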
CtBP-E1A inh: inhibitors of CtBP/E1A interaction; 0.49% of 340,000 active; AID 651724; AlphaScreen GST-E1A/His-CtBP binding, 1536-well; active compounds read low; control for the full effect not named in the record; activity change, % (no concentration beside the values); in the data active means activity change below about -65%; inconclusive means about -30% to -65%; inactive means above about -30%; further: on the % scale 0 is the no-effect control and ±100 the full control effect
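In 5 uL wells, 23 nL compound meets equimolar GST-E1A and His-CtBP (5X stock 125 nM each) for 2 h, 37 °C. Beads (5X, 50 ug/mL) then 1 h, 37 °C, dark.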
D2 potentiator: positive allosteric modulators of human D2 dopamine receptor; 0.23% of 360,000 active; potentiation, % (test concentration not listed); AID 624464; DiscoveRx D2 beta-arrestin cells, luminescence, 90 min; 100% = 57 uM dopamine signal; P14416; active = potentiation of 50% or more; inconclusive = 30% to 50%; inactive = 30% or less;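 further: compound concentration not given in the record; tested on top of an EC20 dose of dopamine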
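D2 cells co-treated with compound plus 50 nM dopamine (EC20) for 90 min at 37 deg C to detect potentiation. Beta-arrestin recruitment was read as enzyme-fragment luminescence after 1 h at ambient temperature. Full response was set by 57 uM dopamine.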
Starred values were filed as active, the others as inactive; ? = inconclusive; nt = not tested or not shown.

No.	structure	TRPML1 blocker	TRPV1 PAM	Six1-Eya2 inh
1	CCC1Oc2ccccc2N(CC(=O)NCc2cccs2)C1=O (centres undefined)	43	-5	14
2	CC(=O)Nc1sc2c(c1CN1CCN(c3ccccn3)CC1)CCCC2	6	-3	-18
3	O=C(COc1ccc2c(-c3ccccc3)cc(=O)oc2c1)NCC1CCC(C(=O)O)CC1 (centres undefined)	nt	-2	2
4	Cc1cc(C)n(C(=O)C(C(=O)c2ccccc2)C(C)C)n1 (centres undefined)	-5	-3	17
5	Cc1cc(NC(=O)c2cnn3cccnc23)no1	-15	?	-3
6	Cc1nn(Cc2c(F)c(F)c(F)c(F)c2F)c(C)c1NC(=O)c1ccc(COc2cc(Cl)ccc2Cl)cc1	20	-7	-1
7	O=C(Cc1n[nH]c(=O)c2ccccc12)NCc1ccc(Cl)cc1	-2	-15	4
8	CCOc1ccc(NC(=O)CC2S/C(=N/N=C3CCCCCC3)NC2=O)cc1 (centres undefined)	4	22	-13
9	CCCC1=C/C(=C/c2ccc(-c3ccccc3OC)o2)C(=O)O1	-8	4	-15
10	COc1ccc(NC(=O)Cn2nnc(-c3ccccc3NS(=O)(=O)c3ccccc3)n2)cc1	5	3	-8

No.	TRPML1 ag	CtBP-E1A inh	D2 potentiator
1	3.1	2	-1
2	-0.1	-23	-31
3	nt	?	-2
4	0.0	30	-11
5	0.8	-11	-12
6	2.4	13	-10
7	1.1	-2	-6
8	-0.2	-28	-27
9	-0.2	17	-15
10	2.1	-2	-28

Other structures follow.
No.	structure	TRPML1 blocker	TRPV1 PAM	Six1-Eya2 inh
11	Cc1ccc(NC(=O)C2CCN(S(C)(=O)=O)CC2)c(C)c1	-5	-16	0
12	CCN1CCN(CC(O)COCc2ccccc2)CC1 (centres undefined)	-3	10	16
13	Cc1nc2ccccc2n1CC(O)Cn1c(C(F)(F)F)nc2ccccc21 (centres undefined)	5	5	-6
14	Cc1ccc(S(=O)(=O)N(C)c2ccc(OCC(=O)N3CCCCC3)cc2)cc1	11	-9	2
15	CC(OC(=O)C1=COCCO1)C(=O)Nc1ccc(Cl)cn1 (centres undefined)	6	5	3
16	Cn1c(CC(=O)NNC(=O)c2cccnc2)nc2ccccc21	-10	-14	?
17	COc1ccc(/C=C/C(=O)Oc2ccc(C)cc2)cc1	9	-14	-2
18	COc1cccc(C2CN(c3ccc(F)cc3F)N=C2c2cccs2)c1OC (centres undefined)	0	14	69
19	O=C(O)c1cccc(S(=O)(=O)Nc2ccccc2C(=O)NCCc2ccccc2)c1	-2	13	-1
20	Cc1ccc(CNC(=O)COC(=O)c2cnc(C)cn2)cc1	3	-3	0

No.	TRPML1 ag	CtBP-E1A inh	D2 potentiator
11	-0.3	5	-3
12	0.0	1	-7
13	-0.7	3	-4
14	0.2	6	-10
15	23	12	-10
16	0.5	?	-3
17	0.6	-70*	-6
18	1.0	86	-2
19	0.1	-7	-5
20	0.6	0	-1

Remaining list, next part
No.	structure	TRPML1 blocker	TRPV1 PAM	Six1-Eya2 inh
21	COCCNc1nc2cc(-c3ccccc3OC)sc2c(=O)n1C	nt	nt	-3
22	CS/C(=N\S(=O)(=O)c1ccc(N)cc1)NS(=O)(=O)c1cccs1	-7	2	40
23	CN(C)CCCN(C(=O)c1sc2ccccc2c1Cl)c1nc2ccc(F)cc2s1	-10	-1	-10
24	O=C(CSc1nc(-c2cccs2)cc(C(F)(F)F)n1)NCCCN1CCOCC1	-6	15	-4
25	CC(=O)Nc1ccc(S(=O)(=O)NN=c2sc3ccccc3n2C)cc1N	15	nt	-7
26	O=C(O)C(NS(=O)(=O)c1cccc2nsnc12)c1ccccc1 (centres undefined)	nt	8	9
27	COc1ccc(NC(=O)Nc2cccs2)cn1	-15	-8	-11
28	Cn1c(Cn2c(=O)sc3ccccc32)nnc1SCC(=O)Nc1ccc2c(c1)OCO2	-16	nt	5
29	CN(Cc1ccccc1)C(=O)c1ccc(NC(=O)C2CCN(C(=O)OC(C)(C)C)CC2)cc1	-16	nt	-3
30	Cc1ccccc1OCC(=O)N(Cc1nnc(-c2ccc(Cl)cc2)o1)C(C)C	6	10	-8

No.	TRPML1 ag	CtBP-E1A inh	D2 potentiator
21	-1.2	0	2
22	-0.4	4	6
23	0.7	0	-36
24	-0.2	-9	-8
25	-0.8	-3	4
26	nt	-9	-10
27	-0.8	-8	-8
28	0.3	0	-1
29	1.5	7	-9
30	-1.1	nt	-17

Some of these compounds in order of heavy-atom count, descending.
No.	structure	TRPML1 blocker	TRPV1 PAM	Six1-Eya2 inh
29	CN(Cc1ccccc1)C(=O)c1ccc(NC(=O)C2CCN(C(=O)OC(C)(C)C)CC2)cc1	-16	nt	-3
19	O=C(O)c1cccc(S(=O)(=O)Nc2ccccc2C(=O)NCCc2ccccc2)c1	-2	13	-1
7	O=C(Cc1n[nH]c(=O)c2ccccc12)NCc1ccc(Cl)cc1	-2	-15	4
20	Cc1ccc(CNC(=O)COC(=O)c2cnc(C)cn2)cc1	3	-3	0
17	COc1ccc(/C=C/C(=O)Oc2ccc(C)cc2)cc1	9	-14	-2
27	COc1ccc(NC(=O)Nc2cccs2)cn1	-15	-8	-11

No.	TRPML1 ag	CtBP-E1A inh	D2 potentiator
29	1.5	7	-9
19	0.1	-7	-5
7	1.1	-2	-6
20	0.6	0	-1
17	0.6	-70*	-6
27	-0.8	-8	-8

The list continues.
No.	structure	TRPML1 blocker	TRPV1 PAM	Six1-Eya2 inh
31	O=C(O)CSc1nc(SCc2ccccc2Cl)nc2c1CCCC2	16	-9	-1
32	O=C(N/N=C/c1cccc(F)c1)c1cc(-c2ccco2)nc2ccccc12	17	4	-29
33	CCOc1cc(CNCc2cc(OC)cc(OC)c2)ccc1OC	-5	5	4
34	COc1ccc([N+](=O)[O-])cc1Nc1c2ccccc2nc2ccccc12	17	6	-22
35	CCOC(=O)c1cccc(NC(=O)C2CCN(S(=O)(=O)c3cnc[nH]3)CC2)c1	3	nt	-5
36	Cc1cc(C)nc(SCCN2CCOCC2)n1	-7	5	0
37	Cc1ccc(S(=O)(=O)CC(O)COc2ccc(F)cc2Cl)c(C)c1 (centres undefined)	-8	3	5
38	O=C1c2cc(O)c(O)cc2S(=O)(=O)C1c1ccccc1 (centres undefined)	32	-15	-1
39	CCC(C)NC(=O)CNC(=S)N(CCCN1CCOCC1)Cc1cccs1 (centres undefined)	38	-4	6
40	CCS(=O)(=O)c1ccc2oc(SCC(=O)NCCc3ccc(OC)cc3)nc2c1	9	4	-1

No.	TRPML1 ag	CtBP-E1A inh	D2 potentiator
31	2.6	-13	-13
32	-0.1	-1	2
33	-1.1	5	-33
34	0.8	?	-4
35	-0.4	-1	-3
36	2.3	4	0
37	-0.2	25	11
38	2.7	-1	1
39	0.3	-3	-10
40	-0.8	9	-2

(more compounds)
No.	structure	TRPML1 blocker	TRPV1 PAM	Six1-Eya2 inh
41	O=C(Cn1nc(Cc2cccnc2)c2ccccc2c1=O)Nc1ccccc1F	-7	nt	-5
42	N/C(CN1CCCCC1)=N\S(=O)(=O)c1cc(Cl)cc(Cl)c1	7	0	-23
43	N#CCc1c[nH]c2ccc([N+](=O)[O-])cc12	28	nt	4
44	O=C(/C=C/c1ccc(F)cc1)NCCc1ccc2c(c1)OCCO2	12	-4	-4
45	c1ccc(C2=NNC(=NC3CC3)SC2)cc1	-4	3	0
46	[O-]/[N+](=C/c1ccc(F)cc1)c1ccc(Cl)cc1	1	-1	2
47	COC(C[C@@H]1O[C@@H]1[C@H](O)[C@H](C)OCc1ccccc1)OC	8	-15	3
48	O=C1N(C2CCCC2)C[C@@H]2C[C@@H](c3cccn3-c3ccccn3)N3CCC[C@@]123	-13	1	1
49	O=C(O)c1ccccc1C(=O)c1ccc(Br)s1	21	-7	10
50	O=C(Nc1ccc2nsnc2c1)NC1CCCCC1	-10	-11	5

No.	TRPML1 ag	CtBP-E1A inh	D2 potentiator
41	0.7	-1	-3
42	0.1	-19	-13
43	0.2	2	1
44	0.9	5	-7
45	-0.2	-4	-14
46	0.4	4	9
47	-0.4	3	-15
48	-1.1	1	-1
49	0.1	nt	-7
50	-1.4	-4	-27

Next records
No.	structure	TRPML1 blocker	TRPV1 PAM	Six1-Eya2 inh
51	COc1c(/C=N/Nc2ccc(C(=O)O)cc2)c(CCN(C)C(C)=O)cc2c1OCO2	22	0	-6
52	O=C(NCCN1C(=O)S/C(=C\c2cccnc2)C1=O)C1=NN(c2ccccc2)C(=O)CC1	-9	-27	-29
53	CCN1CCN(S(=O)(=O)c2ccc(Cl)c(C(=O)NCc3ccco3)c2)CC1	-17	17	0
54	CCCCc1c(C)nc(N)[nH]c1=O	-5	1	4
55	CCN(CC)C(=O)/C(=C/c1ccc2c(c1)OCO2)NC(=O)c1ccc(Br)cc1	8	9	10
56	CC(Oc1ccc(C(=O)c2ccc(F)cc2)cc1)C(=O)N1CCOCC1 (centres undefined)	4	-33	-2
57	Oc1ccc(Cl)cc1N=Cc1sc2ccccc2c1Cl	13	3	1
58	COC(=O)c1ccc(CN2CCC(CO)(Cc3cccc(OC)c3)CC2)cc1	-5	4	-13
59	CCOC(=O)C(=NCCOC)NNc1cc(Cl)ccc1Cl	11	-13	-1
60	CC(NC(=O)C(=O)c1cn(CC(=O)N2CCCC2)c2ccccc12)c1ccccc1 (centres undefined)	-5	nt	-5

No.	TRPML1 ag	CtBP-E1A inh	D2 potentiator
51	-0.9	nt	-7
52	0.0	?	-1
53	-0.4	-19	-8
54	-0.3	7	9
55	2.8	-1	-12
56	-0.1	6	-11
57	-0.8	3	4
58	0.5	nt	-15
59	1.9	nt	-12
60	-0.8	5	-7

Other records.
No.	structure	TRPML1 blocker	TRPV1 PAM	Six1-Eya2 inh
61	CN(C)S(=O)(=O)N1CCC(Oc2ccc(C(=O)NCC(C)(C)CO)cc2)CC1	2	3	16
62	CCCCCn1c(=O)c(Cc2ccccc2)c(O)c2ccccc21	15	?	1
63	COc1cc2sc3cc(NCc4ccc5c(c4)OCO5)ccc3c(=O)c2cc1OC	35	nt	-6
64	CCOc1cc(-c2noc(N)c2C#N)cc(OCC)c1OCC	-4	-18	-2
65	C=CCNC(=O)C1CCN(c2ccc(S(=O)(=O)N3CCOCC3)cc2Cl)CC1	-6	-10	-2
66	CN(C(=O)COC(=O)CCC1CCCCC1)c1c(N)n(Cc2ccccc2)c(=O)[nH]c1=O	-3	1	3
67	COc1ccc(/C=C(/Sc2nnc(-c3ccc(Cl)cc3)o2)C(=O)O)cc1	-11	-2	-1
68	COc1cccc(C(O)c2nc(-c3cccc(NC(C)=O)c3)cs2)c1 (centres undefined)	nt	nt	2
69	Cc1cn([C@H]2C[C@H](O)[C@@H](CNC(=O)[C@@H]3C[C@H](F)CN3)O2)c(=O)[nH]c1=O	-10	nt	16
70	N#Cc1ccccc1OCC(=O)OCC(=O)c1c[nH]c2ccccc12	14	-2	-2
71	O=[N+]([O-])c1ccc(O)c(/C=N/n2c(CO)nc3ccccc32)c1	nt	2	-3

No.	TRPML1 ag	CtBP-E1A inh	D2 potentiator
61	-0.6	6	-4
62	1.0	4	-14
63	1.4	-3	-9
64	2.0	-4	130*
65	0.6	1	-5
66	1.9	0	-2
67	0.8	nt	-6
68	-0.7	2	9
69	-0.1	6	6
70	3.2	-3	-1
71	nt	1	-5
